NS1 inh: inhibitors of influenza NS1 protein function; 270,000 tested, 0.4% active; Potency, µM (top dose mostly 46.1 µM), for inactives: at the top dose activity, positive = more growth; AID 2326; S. cerevisiae slowed by influenza A NS1, growth recovery by OD600; active means well fitted rising curve with a large enough effect; inconclusive means small, poorly fitted or top-dose-only effect; inactive means no such curve, though single readings can be large or run the other way; further: nearly all actives have a fitted effect of over 50% in size
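S. cerevisiae expressing influenza A NS1, grown in glucose, washed, then diluted 1:100 into pH 6.0 -URA galactose medium with 23 nl compound. Growth recovery read as OD600; NS1-free strain serves as control.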
LASV entry inh: inhibitors of Lassa virus binding or cell entry; Lassa virus pseudotype entry inhibition, cell reporter; control for the full effect not named in the record; 300,000 tested, 1.2% active; Potency, µM (top dose mostly 37.9 µM), for the others: at the top dose activity change, negative = inhibition, most hits filed as inhibitors; AID 540256; active means well fitted inhibition curve with a large enough effect; inconclusive means small, poorly fitted or top-dose-only effect, or effect the other way; inactive means flat fitted curve, though single readings scatter; tested in HEK293 cells; further: on the % scale 0 is the no-effect control and ±100 the full control effect; nearly all actives have a fitted effect of over 50% in size; luciferase read-out
RE007 growth inh: less growth of the S. pombe RE007 Vpr strain. S. pombe RE007 Vpr strain, BacTiter-Glo ATP luminescence, 24 h; control for the full effect not named in the record. Potency, µM (series often up to 92.2 µM), inactives show top-dose activity change, negative = less growth. 360,000 tested, 0.21% active. AID 651644; active = well fitted falling curve with a large enough effect; inconclusive = small, poorly fitted or top-dose-only effect; inactive = no such curve, though single readings can be large or run the other way;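 further: on the % scale 0 is the no-effect control and ±100 the full control effect; nearly all actives have a fitted effect of over 50% in size; the assay follows cell death caused by Vpr and the record does not say whether a fall means rescue or toxicity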
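Fission yeast RE007 carrying one integrated HIV-1 vpr copy, seeded at OD 0.01 in PMG+AL medium with 23 nL pinned compound. Grown 24 h at 30 degrees; viability read by BacTiter-Glo luminescence after 5 min.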
Marburg entry inh: Marburg virus entry inhibition. Marburg virus pseudotyped entry inhibition, cell reporter; control for the full effect not named in the record; about a third of the inactives were read at about 46 µM. 300,000 tested, 1.8% active. AID 540276. Potency, µM (titrated, usually from 37.8 µM), for the others: at the top dose activity change, negative = inhibition, most hits filed as inhibitors; active = well fitted inhibition curve with a large enough effect; inconclusive = small, poorly fitted or top-dose-only effect, or effect the other way; inactive = flat fitted curve, though single readings scatter; tested in HEK293 cells; about a fifth of its hits are not listed in these tables; further: on the % scale 0 is the no-effect control and ±100 the full control effect; luciferase read-out
Cruzain Triton: cruzain (T. cruzi) inhibition with detergent. 200,000 tested, 0.43% active. purified cruzain, Z-FR-AMC fluorescence, 0.01% Triton. Potency, µM, for the others: max response, negative = inhibition, hits mostly inhibitors;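 further: plate controls were neutral wells for no effect and buffer without enzyme for full effect; nearly all actives have a fitted effect of over 40% in size; top concentration of the series not given in the record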
Target sequence (P25779 123-467 limits assumed): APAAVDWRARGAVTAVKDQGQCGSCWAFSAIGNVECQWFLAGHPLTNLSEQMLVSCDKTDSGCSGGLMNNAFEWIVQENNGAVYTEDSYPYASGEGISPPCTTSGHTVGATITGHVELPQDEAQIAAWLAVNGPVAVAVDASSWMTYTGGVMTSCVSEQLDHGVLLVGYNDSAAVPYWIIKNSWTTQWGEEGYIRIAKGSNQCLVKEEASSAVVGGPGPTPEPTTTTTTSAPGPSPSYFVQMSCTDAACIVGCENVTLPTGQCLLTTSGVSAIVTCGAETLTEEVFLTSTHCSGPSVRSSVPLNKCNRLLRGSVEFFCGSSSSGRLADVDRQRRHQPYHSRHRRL
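In this qHTS format, compounds are incubated with 1.5 nM cruzain for 15 min at room temperature before 2 uM Z-FR-AMC is added. Release of AMC is followed at 360/450 nm, and progress is taken as the 60 s fluorescence difference.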
SARS PLpro yeast: SARS-CoV PLP inhibition in yeast. S. cerevisiae expressing SARS-CoV PLpro, growth rescue; control for the full effect not named in the record. Potency, µM (titrated, usually from 32.9 µM), inactives show top-dose activity, positive = growth rescue. 330,000 tested, 0.19% active. AID 485353; active means well fitted rising curve with a large enough effect; inconclusive means small, poorly fitted or top-dose-only effect; inactive means no such curve, though single readings can be large or run the other way; further: 0% is about no effect; nearly all actives have a fitted effect of over 55% in size; growth read by luminescence after 48 h
2A StopGo: FMDV 2A StopGo reporter, luciferase signal | 410,000 tested, 1.2% active | human cells with a luciferase reporter of 2A StopGo recoding; control for the full effect not named in the record | Potency, µM (series often up to 57.9 µM), for inactives: at the highest dose signal change, negative = less light | AID 1159524; active = well fitted falling curve with a large enough effect; inconclusive = small, poorly fitted or top-dose-only effect; inactive = no such curve, though single readings can be large or run the other way; tested in HEK293T cells; further: on the % scale 0 is the no-effect control and ±100 the full control effect; nearly all actives have a fitted effect of over 45% in size; luciferase light after 4 h
Cruzain inh noDet: inhibitors of Trypanosoma cruzi cruzain without detergent; purified cruzain, Z-FR-AMC fluorescence, no detergent; Potency, µM, for the others: max response, negative = inhibition, usual class: inhibitors; 200,000 tested, 2.3% active;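 further: plate controls were enzyme without inhibitor for no effect and buffer without enzyme for full effect; nearly all actives have a fitted effect of over 40% in size; top concentration of the series not given in the record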
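Detergent-free condition (0.00005% Triton X-100) in acetate buffer pH 5.5 with DTT. 1.5 nM enzyme and compound were pre-mixed 15 min, then 2 uM Z-FR-AMC substrate added; reaction progress from fluorescence change between first and third reads (60 s).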
Numbers without * were called inactive; ? = inconclusive; . = not tested or not shown; & = joins results of further samples; [ ] = dose if it differs, or a comment. Unless noted, the call rests on the fitted dose curve; in most records, active means well fitted curve in the direction sought with a large enough effect; inconclusive means small, poorly fitted or top-dose-only effect, or another doubt; inactive means no such curve, though single readings can be large; an effect the other way counts as inactive or inconclusive. Potency means the concentration at half of the fitted maximal effect. Random draw from the library. Share with any hit: about 4.8%.

SMILES | NS1 inh | LASV entry inh | RE007 growth inh | Marburg entry inh | Cruzain Triton | SARS PLpro yeast | 2A StopGo | Cruzain inh noDet
Cc1cc(-c2n[nH]c(=S)n2/N=C/C=C/c2ccccc2)n[nH]1 | 19% | -3% | 13% | 4% | -8.0% | 11% | -21% | 13%
CC(C)(C)C(=O)OC[N+](C)(C)CCOC(=O)C(O)(c1ccccc1)C1CCCC1 (stereo not given) | -2% | 24% | -13% | ? | . | 0% | -9% | .
CCC(=O)N1c2nc(C(C)C)nn2C2(CCCCC2)[C@@H]2CCCC[C@@H]21 | . | 3%[46.1 µM] | . | ? | -0.2% | . | ? | -15%
COC(=O)C1CCN(C(=O)c2ccc3nc(-c4cccc(OC)c4)oc3c2)CC1 | -18% | . | -5% | . | . | 1% | 4% | .
Cc1c(NC(=O)c2ncn[nH]2)cccc1-c1nc2ccccc2s1 | -4% | -14% | -3% | -11% | 1.8% | -2% | -2% | ?
CNc1cc(N2CCCCCC2)ccc1[N+](=O)[O-] | -55% | -24% | -4% | -17% | -14% | -10% | . | -6%
COc1cccc(C(=O)NNC(=O)C(=O)Nc2cccc3ccccc23)c1 | -47% | -8% | -6% | -6%[46.1 µM] | . | -1% | -3% | .
COc1ccccc1N1CCN(c2cc(N3CCCC3)nc(C)n2)CC1 | 4% | -8% | 1% | 4% | -2.0% | -15% | 11% | -6%
CCCC1(C)C(C#N)C(=O)NC(=O)C1C#N (stereo not given) | . | 23%[46.1 µM] | 14% | ? | . | . | 4% | .
CC(C)OC(=O)c1c(N)sc2c1CCCC2 | -35% | -24% | -14% | -7% | . | . | -22% | .
CCc1nnc2sc(-c3ccc(NC(=O)c4ccco4)cc3)nn12 | -16% | 0% | 5%[3.69 µM] | -2% | -5.4% | -1% | 14% | 4%
CC(C)c1nnc(NC(=O)CCN2C(=O)c3ccccc3C2=O)s1 | -2% | 4% | -10% | 2% | 0.1% | 2% | . | -3%
Cc1ccc2occ(CN3CCN(c4ccccc4)CC3)c(=O)c2c1 | -9% | -5% | -24% | 8% | 5.2% | 0% | 7% | 1%
CCOC(=O)c1ccc(NS(=O)(=O)c2c(C)nc3sccn3c2=O)cc1 | 1% | . | 2% | . | . | 1% | -24% | .
COc1ccc(C2/C=C\CN(CC(C)C)CC(=O)N2Cc2cccc(F)c2)cc1 (stereo not given) | . | . | 0% | . | 2.3% | 2% | -23% | -3%
CN(C)c1ccc(-n2cc3c(=O)n(C)c(=O)n(C)c3c2)cc1 | -50% | 8% | 2% | ? | -5.1% | -2% | 40%[activator] | -13%
O=C(Cn1nc(-c2ccccc2)ccc1=O)NCC1CCCO1 (stereo not given) | 3% | -3% | 6% | 1% | -1.2% | 6% | -17% | -2%
CC1CCC/C(=C\Nc2ccc(C(=O)O)cc2)C1=O (stereo not given) | . | ? | 0% | ? | . | 2% | ? | .
O=C(CCc1ccccc1)N/N=C\c1cc2c(cc1Br)OCO2 | -9% | ? | 11% | -19% | . | -2% | -5% | .
CCOc1ccc(CN(Cc2ccco2)C(c2cccs2)c2nnnn2C(C)(C)C)cc1 (stereo not given) | ? | ? | 3% | ? | -2.5% | -8% | -11% | -29%
CN(CC(=O)Nc1ccccc1Cl)C(=O)COC(=O)C1=COCCO1 | . | 2% | -16% | 12% | . | -15% | -22% | .
Oc1ccc(-n2nnnc2SCc2c(F)cccc2Cl)cc1 | -6% | ? | 13% | -9%[46.1 µM] | . | -7% | 10% | .
O=C1C=CC(=O)N1c1ccc(O)cc1 | -101% | . | 6.3µM* | . | . | -8% | -27% | .
Cc1ccc2nc(N(CCCN(C)C)C(=O)CS(=O)(=O)c3ccccc3)sc2c1 | . | 8% | -4% | ? | . | . | -1% | .
Cc1ccccc1NC(=O)c1ccc(C)c(S(=O)(=O)Nc2cccnc2)c1 | 4% | -5% | 8% | 2% | . | 1% | 32%[activator] | .
(listing goes on)
SMILES | NS1 inh | LASV entry inh | RE007 growth inh | Marburg entry inh | Cruzain Triton | SARS PLpro yeast | 2A StopGo | Cruzain inh noDet
COc1ccc(S(=O)(=O)N2CCCC(C(=O)NCC3CCCO3)C2)cc1Cl (stereo not given) | -15% | 5% | 11% | 5% | . | -6% | -18% | .
C=CCn1c(=O)/c(=C2/SC(C)=C(C)N2CC)s/c1=C1/C(=O)N(CC)C(=S)N1c1ccccc1 | 2% | 13% | -4% | -14%&-14% | 0.7% | 2% | -14% | -7%
O=[N+]([O-])c1cccc(-c2ccc(C(=S)N3CCN(c4ccc(F)cc4)CC3)o2)c1 | 1% | 17% | -9% | ? | -24% | 2% | -4% | 25µM*
CN(C)CCNc1cc(-c2ccncc2)nc2ccccc12 | 2% | -12%[46.1 µM] | -5% | 6.3µM* | . | 0% | 6% | .
CCSC1=C(C#N)C(c2cccc(Br)c2)CC(=O)N1 (stereo not given) | -4% | -15% | 9% | -10% | -4.2% | 5% | . | -4%
CCC(CC)C(=O)N1CCc2cc(OC)c(OC)cc2C1COc1ccccc1OC (stereo not given) | . | -5%[46.1 µM] | . | . | -0.1% | . | -20% | 27%
Cc1ccccc1N(C)S(=O)(=O)c1nnc(NC(=O)c2ccccc2F)s1 | -41% | -21%[46.1 µM] | -1% | . | -2.7% | -7% | -7%&-2% | -4%
O=C1/C(=C/c2cccc([N+](=O)[O-])c2)CCc2ccccc21 | -20% | -18% | ? | ? | -7.3% | -95% | -18% | -2%
Cc1cccc(C(=O)NC(=S)N2CCc3ccccc3C2)c1 | -21% | 13% | -25% | ? | -4.6% | -18% | 55%[activator] | -16%
CN(C)CCNC(=O)C1CCCNC1=O (stereo not given) | 4% | 17% | -11% | -4% | 1.8% | 4% | -13% | -5%
Cc1nc2ccc([N+](=O)[O-])cc2s1 | . | -5% | -6% | 0%[46.1 µM] | . | 1% | 7% | .
O=C1OCCC1Sc1nnc(-c2ccco2)o1 (stereo not given) | -5% | 2% | 5% | 20%[46.1 µM] | 0.9% | -19% | -27% | 16%
Cc1cccc(C(C)C)c1NC(=O)c1ccc2c(c1)CCCN2S(C)(=O)=O | . | 14%[46.1 µM] | . | -13%[46.1 µM] | -0.2% | . | 0% | 0%
N#CC1=C(N)Oc2n[nH]c(-c3cccnc3)c2C1c1ccc([N+](=O)[O-])o1 (stereo not given) | . | ? | -25% | -5% | . | 0% | -18% | .
CC(C)CNS(=O)(=O)c1ccc(S(=O)(=O)N2CCN(CCC#N)CC2)cc1 | 7% | . | -6% | . | -2.9% | 1% | 7% | 6%
Cc1nn(CC(=O)NC2CCC(C)CC2)c(=O)c2c1sc1ccccc12 (stereo not given) | . | 0%[46.1 µM] | . | ? | -8.6% | . | -7% | -5%
CCOc1cc(/C=C2\NC(=O)NC2=O)ccc1OC(C)C(=O)O (stereo not given) | 10% | 15%[46.1 µM] | 79% | -3%[46.1 µM] | . | 1% | 1% | .
COC(=O)C1CCN(C(=O)Cc2c(OC)ccc3cc(Br)ccc23)CC1 | -4% | . | -1% | . | . | -3% | -24% | .
CCC(CC)C(=O)Nc1cccc(-c2ccc3nncn3n2)c1 | 9% | . | 1% | . | . | 4% | -4% | .
COc1ccc(CCNCc2ccccc2)cc1 | ? | . | -18% | . | . | 2% | -5% | .
O=C(CCC(=O)c1cccs1)OCC(=O)N1CCN(C(=O)c2ccco2)CC1 | -7% | 4% | 13% | 0% | 2.7% | 1% | -14% | 2%
CCN(CC)C(=O)CSc1nnc(SCc2ccc(Cl)cc2)s1 | 3% | ? | 5% | -19%[46.1 µM] | -4.4% | 4% | -9% | 3%
Cc1ccc2cc(NC(=O)c3cccc(F)c3)ccc2n1 | -3% | . | -16% | . | . | -3% | 12% | .
COc1ccccc1NC(=O)Nc1nnc(CC(=O)Nc2ccccc2C)s1 | . | 3%[46.1 µM] | 11% | -15%[46.1 µM] | . | 7% | -5% | .
COC(=O)c1cc(-c2ccc(Br)cc2)on1 | -111% | . | -22% | . | 1.2% | 0% | -9% | -14%
Going on with the list:
SMILES | NS1 inh | LASV entry inh | RE007 growth inh | Marburg entry inh | Cruzain Triton | SARS PLpro yeast | 2A StopGo | Cruzain inh noDet
CC(C)(C)c1ccc(OCC(=O)OCCNC(=O)c2cccnc2)cc1 | -5% | -1% | -11% | 2% | -0.6% | -9% | 6% | 8%
CC(Cn1cncn1)C(=O)N1CCN(S(=O)(=O)c2ccccc2)CC1 (stereo not given) | 8% | . | -6% | ? | . | -7% | 7% | .
CCOC(=O)C1(S(=O)(=O)c2ccc(Cl)cc2)CCN(Cc2ccc(C)cc2)CC1 | -9% | -33% | -11% | ? | 0.1% | -2% | -24% | -2%
Brc1ccc(Nc2nc3ccccc3n3nnnc23)cc1 | -6% | . | . | 1% | 2.8% | -20% | . | -28%
C=CCNC(=O)c1ccc(Sc2ccc(C)cc2)c([N+](=O)[O-])c1 | 0% | -8% | 15% | 0% | -1.5% | 1% | -23% | -11%
CCCCOc1ccc(OCCCC)c2c1NC1(N2)C(=O)N(C(C)=O)c2ccccc21 | -14% | 15% | 15% | -14%[46.1 µM] | 3.1% | -9% | -10% | 6%
Cc1ccc(NC(=O)CCC(=O)NNC(=O)C(C)(C)C)c(C)c1 | 1% | . | 5% | . | . | 0% | -3% | .
CN1C(=O)C(C2CCCCC2)C(=O)N(C)C1=O | . | 15%[46.1 µM] | -9% | 14% | . | . | -7% | .
COC(=O)CCCCC1SCC(NC(=O)c2ccccc2)C1Cl (stereo not given) | 1% | ? | 6% | 9%[46.1 µM] | . | 0% | ? | .
Cc1cccn2c(=O)c3cc(C(=O)NCC4CCCO4)c(=N)n(CCc4ccccc4)c3nc12 (stereo not given) | 9% | 18%[46.1 µM] | -9% | ? | . | 0% | -1% | .
O=C(CSc1nc2ccccc2[nH]1)Nc1c(F)cccc1F | -11% | ? | 4% | -25%[46.1 µM] | -5.4% | 0% | 15% | -14%
CC(NC(=O)COC(=O)CCC(=O)c1ccc(Cl)cc1)c1ccccc1 (stereo not given) | . | 11%[46.1 µM] | -3% | ? | . | -25% | -2% | .
Cc1cc2c(c(=O)n1Cc1ccc3c(c1)OCO3)C(c1cccnc1)C(C#N)=C(N)O2 (stereo not given) | 1% | -5% | -21% | 4% | -0.1% | ? | -11% | -1%

Screening results: PubChem, National Center for Advancing Translational Sciences (NCATS)
